Screening data (PubChem)
TRPML1 ag = qHTS for Agonists of the Human Mucolipin Transient Receptor Potential 1 (TRPML1) | 410,000 tested, 0.12% active | Mucolipin-1 (Homo sapiens), Q9GZU1 | activation, % (concentration not given with the values) | TRPML1-expressing cells, Ca2+ dye fluorescence, FDSS; host cell line not named in the record; reference of the full effect not given here | AID 624414, 2012; in the data active = activation above about 50%; inconclusive = about 30% to 50%; inactive = below about 30%; note: 0% is about no effect; the text of the record puts the active cut at 80%
Target sequence (Q9GZU1 whole entry, looked up): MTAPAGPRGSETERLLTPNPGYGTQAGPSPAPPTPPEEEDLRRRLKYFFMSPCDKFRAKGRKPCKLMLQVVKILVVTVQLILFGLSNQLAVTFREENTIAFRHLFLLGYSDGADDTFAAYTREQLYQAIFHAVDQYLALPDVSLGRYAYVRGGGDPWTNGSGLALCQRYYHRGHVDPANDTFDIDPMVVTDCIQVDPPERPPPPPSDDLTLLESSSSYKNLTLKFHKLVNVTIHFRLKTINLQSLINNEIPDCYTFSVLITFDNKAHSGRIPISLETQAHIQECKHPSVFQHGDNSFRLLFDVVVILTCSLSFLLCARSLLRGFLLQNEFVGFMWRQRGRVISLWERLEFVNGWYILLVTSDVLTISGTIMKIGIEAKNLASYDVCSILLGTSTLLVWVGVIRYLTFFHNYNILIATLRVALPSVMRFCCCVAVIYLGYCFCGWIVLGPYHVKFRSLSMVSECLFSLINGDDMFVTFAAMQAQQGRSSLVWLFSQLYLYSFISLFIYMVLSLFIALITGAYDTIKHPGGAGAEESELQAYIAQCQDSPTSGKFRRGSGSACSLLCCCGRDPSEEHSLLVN
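TRPML1-DL cells, Tet-induced overnight (~16 h, 37 degrees C), loaded 45-90 min at room temperature with Ca8 no-wash calcium dye plus quencher. FDSS fluorescence: 10 s baseline, compound pin-transfer, 110 s agonist read, then EC80 54-4 (4uM final) and 110 s antagonist read.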
PINK1 expr mod = A Quantitative High throughput Screen to Identify Chemical Modulators of PINK1 Expression. 410,000 tested, 0.2% active. Potency, µM (titrated, usually from 76.6 µM), for inactives: at the highest dose activation (PINK1 increase), usual class: activators. PINK1 immunofluorescence, high-content cytometry, 24 h; active = well fitted activation curve with a large enough effect; inconclusive = small, poorly fitted or top-dose-only effect; inactive = flat fitted curve, though single readings scatter; cell line not stated here;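 note: potency is the fitted concentration of half-maximal effect; % of control where 0% means no effect; nearly all actives have a fitted effect of over 65% in size; a mitochondrial uncoupler was the plate control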
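Stable cell line treated 24 h with compounds at 5 concentrations (CCCP controls), then fixed and immunostained for PINK1 plus nuclear and cell stains; PINK1 immunofluorescence quantified by laser-scanning microplate cytometry.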
The depositor's hits bear a star; u = inconclusive.

compound | TRPML1 ag | PINK1 expr mod
COc1ccc(OC)c([C@@H]2Nc3ccc(C(=O)O)cc3[C@@H]3C=CC[C@@H]32)c1 | -1.1 | -0.4%
COc1ccc(-c2nc(SCC(=O)Nc3ccc4c(c3)OCCO4)c(-c3ccc(F)cc3)[nH]2)cc1OC | 1.9 | 0.9%
O=C(c1ccco1)N(Cc1cccnc1)c1nc2ccc(F)cc2s1 | 3.3 | 1.6%
O=C(CSc1oc(-c2ccco2)nc1S(=O)(=O)c1ccccc1)c1ccc(Cl)cc1 | 0.0 | -1.2%
Cn1nnnc1SCCNCc1ccccc1OCc1ccc(Cl)cc1Cl | 3.5 | 2.2%
COc1cccc(CNC(=O)CN(C)S(=O)(=O)c2ccc3[nH]c4c(c3c2)CCCC4)c1 | 3.7 | 1.8%
Cc1ccc2c(c1)c(=O)c(C(=O)c1ccncc1)cn2CC(=O)Nc1ccccc1Cl | -0.7 | 0.1%
Cc1cccc(C)c1OCCCCn1c(C2CC(=O)N(c3ccc(F)cc3)C2)nc2ccccc21 (stereo not drawn) | 4.1 | 0.4%
CCOc1ccccc1NC(=O)C1CCN(S(=O)(=O)c2ccc3[nH]c(=O)oc3c2)CC1 | 1.4 | -0.7%
Cc1nc(-c2ccc(S(=O)(=O)NCc3ccc(N(C)C)cc3)cc2)co1 | 1.4 | -5.1%
Cc1cc(C(F)(F)F)n2nc(-c3ccc(Br)cc3)cc2n1 | -0.1 | 0.0%
Cc1cc(Cl)ccc1NC(=O)C1CCN(c2nnc(-n3c(C)ccc3C)s2)CC1 | 0.1 | 1.9%
COc1ccc(-c2nnc(SCC(=O)NCc3ccc(C)cc3)nc2-c2ccc(OC)c(OC)c2)cc1OC | 0.1 | 1.6%
COc1ccc(CN2CCc3nc(N4CCN(c5ccc(F)cc5)CC4)ncc3C2)c(OC)c1OC | 1.1 | -0.6%
Cc1sc(-c2cc3c([nH]c2=O)CC(c2ccccc2)CC3=O)nc1-c1ccc(Cl)cc1 (stereo not drawn) | -0.5 | 5.2%
COC(=O)c1cc2occc2n1CC(=O)Nc1ccc(C)cc1Cl | -0.1 | 0.4%
CCCCCn1c(CNC(=O)c2ccc(F)cc2)nc2ccccc21 | 0.5 | 1.1%
CCOC(=O)C1CCCN(S(=O)(=O)c2cc3c4c(c2)CC(=O)N4CCC3)C1 (stereo not drawn) | -0.6 | 1.1%
Cc1cccc(Cc2c(C)nc3nc(SCC(=O)NCc4ccc(F)cc4)nn3c2C)c1 | 1.9 | 5.0%
Cc1ccc2c(=O)cc(C(=O)N(Cc3ccc(N(C)C)cc3)C3CCS(=O)(=O)C3)oc2c1 (stereo not drawn) | 1.1 | 0.3%
CCOc1ccc(OCC(=O)Nc2c(C(=O)Nc3ccc(C)cc3)oc3ccccc23)cc1 | -0.7 | 0.1%
CCN(c1ccccc1)S(=O)(=O)c1ccc(NC(=O)c2nc(SC(C)C)ncc2Cl)cc1 | -0.2 | 0.5%
COc1ccc(C(=O)Nc2ccc(N(C)Cc3ccccc3)c(C(=O)O)c2)cc1 | 0.5 | -1.2%
Cc1ccc(-c2nn(-c3cccc([N+](=O)[O-])c3)c3c2cnc2ccc(F)cc23)cc1 | 0.5 | 0.1%
O=C(NCc1ccccc1Cl)c1cc2c(s1)-c1ccccc1SC2 | 1.7 | -0.6%
Cc1ccc(CCNS(=O)(=O)c2c(C)nc3sc(C)c(C)n3c2=O)cc1 | -1.0 | 1.0%
Cc1nn(-c2ccc3nnc(C)n3n2)c(C)c1CCC(=O)Nc1ccc(OC(F)(F)F)cc1 | 0.3 | -1.1%
CCOC(=O)c1ccc(CN(Cc2ccc(F)cc2)S(=O)(=O)c2ccc(F)c(C(=O)Nc3ccccc3C(F)(F)F)c2)cc1 | 2.7 | -1.9%
CCn1c(=O)c2sccc2n2c(CCCC(=O)N3CCN(c4ccccc4OC)CC3)nnc12 | 0.8 | 1.0%
CCCCSc1nc(-c2cccc(OC)c2)nc2c1Cc1c(CO)cnc(C)c1O2 | 0.1 | 0.3%
O=C(Nc1ccccc1C(F)(F)F)c1cc(-c2ccc3c(c2)OCCO3)on1 | -0.1 | 3.4%
Cc1nn(C)c2c1c(-c1ccccc1)cc(=O)n2Cc1ccc(F)cc1 | 2.9 | u
CCS(=O)(=O)Nc1cc(-c2cn3ccc(C)cc3n2)ccc1C | 0.6 | 1.3%
Cc1ccccc1C(=O)NC1(C(F)(F)F)N=C(c2ccccc2)N(C2CCCCC2)C1=O (stereo not drawn) | -0.6 | -0.6%
CCOC(=O)N1CCN(Cc2nc3cc(NC(=O)c4ccccc4Cl)ccc3n2C(C)C)CC1 | -0.1 | 4.9%
O=S(=O)(c1ccc(-n2cnnn2)cc1)N1CCN(c2cccc(Cl)c2)CC1 | 2.0 | -0.5%
Cc1cccc(NC(=O)c2c(NC(=O)c3ccccc3)sc3c2CCC3)c1 | 1.7 | 2.5%
CC1CCN(S(=O)(=O)c2cn(CC(=O)Nc3ccc(F)cc3)c(=O)c3ccccc23)CC1 | -0.4 | 0.8%
COc1cccc(N2CCN(S(=O)(=O)c3ccc(-c4cc(C(F)(F)F)on4)s3)CC2)c1 | -0.3 | 1.1%
CN(C(=O)Cn1nnc(-c2ccc(S(C)(=O)=O)cc2)n1)c1ccccc1 | 0.4 | 0.3%
COc1cc(NC(=O)CCn2c(-c3ccccc3)cc(C(C)=O)c2C)cc(OC)c1 | 2.8 | -0.9%
CC(C)C(=O)N1c2nc(-c3ccco3)nn2C2(CCCCC2)[C@@H]2CCCC[C@@H]21 | 1.5 | 0.1%
Nc1nnc2c(n1)[nH]c1ccccc12 | -0.5 | 0.2%
CCc1ccc(C(c2ccccc2)c2c(C)[nH]c3ccccc23)s1 (stereo not drawn) | 1.5 | -2.0%
CCOc1ccc(CC(=O)NCCS(=O)(=O)N2CCN(c3ccccc3OC)CC2)cc1 | 2.8 | 0.2%
Cc1ccc(CNC(=O)c2ccc(-n3c(C)cc4c3CCCC4)cc2)cc1 | 0.8 | -1.8%
CCc1ccccc1NC(=O)c1cc(S(=O)(=O)N2CCc3ccccc32)ccc1F | -0.3 | 1.0%
O=C(NCCc1ccc(Cl)cc1)c1ccc2nc(CCc3ccccc3)oc2c1 | 0.4 | 0.0%
O=C(Nc1ccc(S(=O)(=O)N2CCCCC2c2cccnc2)cc1)c1ccc(F)cc1 (stereo not drawn) | 0.0 | 0.5%
CC(C)CC(=O)Nc1nnc(SCc2cc(=O)n3ccccc3n2)s1 | -0.2 | 3.6%
Cc1ccccc1-c1nc(CS(=O)(=O)CC(=O)NCc2cccc(Cl)c2)c(C)o1 | -0.9 | -0.2%
CCc1nn(CC(=O)NCCc2ccc(OC)cc2OC)c(=O)c2cc3sccc3n12 | -0.3 | -0.5%
O=C(CSc1nnc(-c2cccc(F)c2)c(-c2cccc(F)c2)n1)NC1CCCCC1 | 1.2 | 1.3%
COc1ccc(-c2noc(N3CCC(C(=O)Nc4ccc(C)c(F)c4)CC3)n2)cc1OC | -0.3 | 1.9%
CCc1ccc(C2CC(=O)Nc3c2c(C)nn3-c2nc(C)cc(C)n2)cc1 (stereo not drawn) | -0.2 | 0.3%
CCc1ccc(NC(=O)C2CCN(c3nnc(-n4c(C)ccc4C)s3)CC2)cc1 | 2.2 | -1.3%
CCOc1ccc(Nc2cc(C)nc3nc(Cc4ccc(Cl)cc4)nn23)cc1 | 0.3 | 10%
CCOc1ccccc1NC(=O)C(Cc1ccccc1)NS(=O)(=O)c1ccc2c(c1)oc(=O)n2C (stereo not drawn) | 0.3 | 1.7%
Clc1ccc(-c2csc(=Nc3ccccc3)n2Cc2ccc3c(c2)OCO3)cc1 | -0.5 | 4.0%
COc1ccc(N2CCN(C(=O)CCc3nnc4n(C)c(=O)c5sccc5n34)CC2)cc1 | 0.1 | -0.4%

The list continues.
compound | TRPML1 ag | PINK1 expr mod
Cc1cc(O)c(C(c2ccccc2)N2CCC(C)CC2)c(=O)n1Cc1ccco1 (stereo not drawn) | -0.7 | 0.2%
Fc1ccccc1-c1nc(N2CCN(c3cccc(Cl)c3)CC2)c2ccccc2n1 | 1.8 | 3.1%
Cc1noc2ncnc(N3CCN(c4cccc(C(F)(F)F)c4)CC3)c12 | -0.7 | 5.6%
CCOc1cccc(CC(=O)NCc2ccc3c(c2)CCN3C(=O)c2ccc(F)cc2)c1OCC | 0.9 | -0.3%
Cc1ccc(-n2ncc3c(NCCC4=CCCCC4)ncnc32)cc1 | 4.4 | 2.9%
COc1cccc(NC(=O)C(=O)NCCc2csc(-c3ccc(C)cc3)n2)c1 | 2.8 | 2.9%
COc1cccc(N2CCN(C(=O)C3CCN(S(=O)(=O)c4cccc5nonc45)CC3)CC2)c1 | 2.5 | 3.4%
COc1ccc(OC)c(Nc2ncnc3c2nc2n3CCCC2)c1 | 0.5 | -0.4%
O=C1c2ccccc2C(=O)C1(c1ccccc1)N1CCN(c2cccc(Cl)c2)CC1 | 0.7 | 0.9%
C=C(C)Cn1c(SCC(=O)Nc2cc(C)ccc2C)nc2sc3c(c2c1=O)CCCC3 | -1.0 | -0.5%
Cc1cc(C)c2c(=O)c3c(oc2c1)C(=O)N(Cc1ccc(F)cc1)C3c1cccc(O)c1 (stereo not drawn) | 1.9 | 2.3%
O=S(=O)(NCC(c1ccco1)S(=O)(=O)c1ccccc1)c1ccccc1 (stereo not drawn) | 1.2 | 0.2%
Cc1c(C(=O)Oc2ccc(Br)cc2)sc2ncn(Cc3ccccc3F)c(=O)c12 | 0.1 | 1.8%
CCOc1ccc(NC(=O)Cn2cc(C(=O)c3ccc(CC)cc3)c(=O)c3cc4c(cc32)OCO4)cc1 | 0.0 | -0.9%
CCOC(=O)c1cccc(NC(=O)Cn2ncc3c(=O)oc4ccccc4c32)c1 | -0.7 | 8.7%
CCc1ccccc1NC(=O)C1CCCN(S(=O)(=O)c2cccc3nsnc23)C1 (stereo not drawn) | -1.3 | 0.3%
CCc1ccccc1NC(=O)CN(c1ccc(OC)cc1)S(=O)(=O)c1c(C)n[nH]c1C | -1.4 | 4.5%
COc1cc(S(=O)(=O)NCCc2c(C)[nH]c3ccc(C)cc23)ccc1Br | 1.7 | u
CC(=O)Nc1nonc1-c1nnc(SCC(=O)Nc2ccccc2Cl)n1C | 0.7 | -0.5%
Cc1c(Cl)cccc1-n1nc(C)c2c(C)cc(=O)n(CC(=O)NCc3ccccc3)c21 | 0.0 | -0.2%
Cc1ccccc1Nc1c(-c2cccnc2)nc2ccc(Cl)cn12 | 0.0 | -0.4%
COc1ccc(-c2cc(C)no2)cc1S(=O)(=O)NCc1ccco1 | 1.0 | 0.6%
CCc1ccc(NC(=O)CSC2=Nc3ccccc3C3=NC(CC(=O)NC4CCCCC4)C(=O)N23)cc1 (stereo not drawn) | 1.2 | 0.3%
Cc1oc2ncnc(N3CCCCC3)c2c1C(=O)N1CCN(c2cccc(Cl)c2)CC1 | -0.6 | -0.8%
CC(C)CN1CCc2nc(N3CCN(c4ncccn4)CC3)ncc2C1 | 0.0 | 0.9%
O=C(NCCc1nc2ccccc2n1CCOc1ccc(Cl)cc1)C1CCCCC1 | 6.3 | u
CCc1ccccc1NC(=O)c1cc(S(=O)(=O)NCCc2ccc(OC)c(OC)c2)ccc1F | 2.0 | 2.0%
COc1ccc(-c2nc(CSCC(=O)N3CCN(c4ccc(F)cc4)CC3)c(C)o2)cc1 | 0.6 | -0.1%
COc1cccc(CC(=O)Nc2ccc(-c3nc4ccccc4s3)cc2Cl)c1 | -0.3 | 4.2%
Cc1ccc(Cn2c(=O)n(CCCC(=O)NCc3ccccc3Cl)c(=O)c3ccccc32)cc1 | -0.3 | 0.8%

Reformatted: entries from further up
> Cc1ccc(-n2ncc3c(NCCC4=CCCCC4)ncnc32)cc1
  TRPML1 ag: 4.4
  PINK1 expr mod: 2.9%
> COc1cccc(NC(=O)C(=O)NCCc2csc(-c3ccc(C)cc3)n2)c1
  TRPML1 ag: 2.8
  PINK1 expr mod: 2.9%

Other structures.
compound | TRPML1 ag | PINK1 expr mod
Clc1cccc(N2CCN(c3nc4ccccc4n4nnnc34)CC2)c1 | 0.4 | 0.5%
Cc1nnc2c3ccccc3nc(N3CCN(c4cccc(Cl)c4)CC3)n12 | 3.8 | -0.2%
CCc1cccc(NC(=O)CN(C)S(=O)(=O)c2ccc3c(c2)CCCN3C(C)=O)c1 | -1.0 | -1.8%
COc1ccc(OC)c(NC(=O)C2Cc3ccccc3CN2S(=O)(=O)c2ccc(F)cc2)c1 (stereo not drawn) | 1.7 | 1.1%
CC(C)c1ccc(NC(=O)CN2C(=O)c3cccc4cccc2c34)cc1 | -0.3 | 6.2%
CCOC(=O)c1[nH]c2ccccc2c1NC(=O)c1c(F)cccc1F | 1.8 | 9.2%
Cc1ccc(-c2nc(C)c(CCNS(=O)(=O)c3ccccc3F)s2)cc1 | 0.8 | 0.8%
O=C(COc1ccccc1C(=O)Nc1ccccc1F)Nc1ccc(Br)cc1 | 0.1 | -0.4%
COc1ccc(-c2cc(C)no2)cc1S(=O)(=O)N1CCc2ccccc21 | 1.8 | 2.1%

A few values from the entries so far.
Under PINK1 expr mod, Clc1cccc(N2CCN(c3nc4ccccc4n4nnnc34)CC2)c1 shows 0.5%
Under PINK1 expr mod, Cc1nnc2c3ccccc3nc(N3CCN(c4cccc(Cl)c4)CC3)n12 shows -0.2%
Under PINK1 expr mod, COc1ccc(OC)c(NC(=O)C2Cc3ccccc3CN2S(=O)(=O)c2ccc(F)cc2)c1 (stereo not drawn) shows 1.1%

These rows are one share of the data, so the mix of outcomes need not match the whole.
